# RGS16-Gao: RGS16-Galphao interaction regulator (human); bead-based flow cytometry RGS16-Galphao binding, fluorescence; actives lie on both sides; 220,000 compounds, 0.38% hits; binding response (% of control), % at 10 µM; O15492+P09471;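 active = below 25% or above 175%, edge rows of some plates excepted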;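 note: Galphao activated by GDP with aluminum fluoride before binding; 100% = wells without compound and 0% = beads without RGS; some results beyond the cut were filed as inactive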
# GALR2 ag: agonists of human galanin receptor 2 (GALR2); GALR2-expressing cells, agonist activation read-out; activation, %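 (tested at 5 µM)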; 140,000 compounds, 0.48% hits;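 active = above mean plus 3 SD of all compounds, about 5% in these data, not always enough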;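 note: 0% = vehicle buffer wells and 100% = reference agonist at full effect; tested in CHO reporter cells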
# HSV augment: increases HSV replication in cells; AID 1956; maximum fold increase; 220,000 compounds, 0.005% hits; HSV replication augmentation in cells, fold increase;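 active = peak rise of 1.5-fold or more in the series; inconclusive = self-fluorescent or not available for retest; tested in PC3 cells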;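 note: first round at 10 µM; read as green reporter fluorescence; hits show the peak of a series up to 25 µM; 1 = signal of infected wells without compound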
# PKD1 inh: PKD1 (human) kinase inhibition | Q15139 | PKD1 kinase fluorescence polarization assay | inhibition, %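 (about 10 µM by stock and volumes)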 | 200,000 compounds, 0.056% hits;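 active = inhibition of 50% or more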;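 note: controls were vehicle for no effect and a reference inhibitor for full effect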
# Target sequence (Q15139 whole entry, looked up): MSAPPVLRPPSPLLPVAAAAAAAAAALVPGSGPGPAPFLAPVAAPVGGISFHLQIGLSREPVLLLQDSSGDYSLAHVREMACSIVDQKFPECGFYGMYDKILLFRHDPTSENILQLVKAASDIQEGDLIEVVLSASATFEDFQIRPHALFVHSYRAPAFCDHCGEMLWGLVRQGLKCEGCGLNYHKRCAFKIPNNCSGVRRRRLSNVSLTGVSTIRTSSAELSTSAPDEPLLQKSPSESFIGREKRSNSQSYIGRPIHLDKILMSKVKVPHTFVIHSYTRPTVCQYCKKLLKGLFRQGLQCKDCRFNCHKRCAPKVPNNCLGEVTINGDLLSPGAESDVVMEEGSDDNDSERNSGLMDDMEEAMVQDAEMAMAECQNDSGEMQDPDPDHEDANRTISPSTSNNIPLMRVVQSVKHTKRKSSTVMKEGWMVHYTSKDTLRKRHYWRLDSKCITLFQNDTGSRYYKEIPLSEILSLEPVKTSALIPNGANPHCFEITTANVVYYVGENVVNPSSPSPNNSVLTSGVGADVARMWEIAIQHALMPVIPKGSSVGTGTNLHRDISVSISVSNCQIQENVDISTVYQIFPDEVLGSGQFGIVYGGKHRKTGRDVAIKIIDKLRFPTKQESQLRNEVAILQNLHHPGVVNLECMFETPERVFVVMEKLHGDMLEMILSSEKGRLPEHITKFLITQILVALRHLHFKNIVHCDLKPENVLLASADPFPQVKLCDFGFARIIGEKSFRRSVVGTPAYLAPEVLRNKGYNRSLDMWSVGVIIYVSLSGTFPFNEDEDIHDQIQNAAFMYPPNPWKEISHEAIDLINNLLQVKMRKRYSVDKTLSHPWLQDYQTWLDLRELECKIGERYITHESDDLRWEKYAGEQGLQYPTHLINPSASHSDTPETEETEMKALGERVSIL
# Insulin prom inh: TRM-6 insulin promoter activity inhibition. inhibition, % at 2 µM. 130,000 compounds, 0.9% hits. TRM-6 cells (human fetal islet line), insulin promoter-eGFP reporter, imaging; reporter expression induced with tamoxifen;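 active = inhibition above the mean plus 3 SD, with well images judged a real hit on visual review, cut at about 60% in these data, passing the limit was not always enough; inconclusive = inhibition over the cutoff but images rejected on review; inactive = inhibition not above the cutoff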
# Insulin prom inh cell count: also measured in Insulin prom inh; calls as there; normalized cell count, %; measured here: cell count, toxicity; reference of the scale not given here;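 cells exposed to compound for 48 h; stained nuclei by imaging scaled within each plate; lower means fewer cells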
# HSV augment primary fold: recorded beside HSV augment, whose call it bears; fold increase; compound at 10 µM; measured here: primary screen fold increase 10 uM; tested in PC3 cells;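 GFP signal in the first replicate; 1 = infected wells without compound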
# * hit, by the source's call; i = inactive; ? = inconclusive; . = no result given.
# The opening 5 records, to show the layout:
SMILES,RGS16-Gao,GALR2 ag,HSV augment,HSV augment primary fold,PKD1 inh,Insulin prom inh,Insulin prom inh cell count
O=C(NCc1ccccc1Cl)c1ccc2c(=O)n(CCCN3CCCC3=O)c(=S)[nH]c2c1,100,-0.8,i,0.97,-12,-103,97
CC(C)C(C(=O)Nc1ccc2c(c1)OCCOCCOCCOCCO2)N1C(=O)c2ccccc2C1=O (stereo not drawn),102,.,i,1,0,35,110
CC(C)C(=O)OCCN=C1NS(=O)(=O)c2ccccc21,105,0.0,i,0.89,1,39,127
Cc1cccn2c(Nc3ccccc3)c(-c3ccccn3)nc12,101,.,i,0.86,0,.,.
COc1cc(/C=C(/NC(=O)c2ccccc2)C(=O)Nc2ccc(O)cc2)c([N+](=O)[O-])cc1OC,169,-0.8,i,0.98,6,.,.

# The listing, from the start:
SMILES,RGS16-Gao,GALR2 ag,HSV augment,HSV augment primary fold,PKD1 inh,Insulin prom inh,Insulin prom inh cell count
O=C(NCc1ccccc1Cl)c1ccc2c(=O)n(CCCN3CCCC3=O)c(=S)[nH]c2c1,100,-0.8,i,0.97,-12,-103,97
CC(C)C(C(=O)Nc1ccc2c(c1)OCCOCCOCCOCCO2)N1C(=O)c2ccccc2C1=O (stereo not drawn),102,.,i,1,0,35,110
CC(C)C(=O)OCCN=C1NS(=O)(=O)c2ccccc21,105,0.0,i,0.89,1,39,127
Cc1cccn2c(Nc3ccccc3)c(-c3ccccn3)nc12,101,.,i,0.86,0,.,.
COc1cc(/C=C(/NC(=O)c2ccccc2)C(=O)Nc2ccc(O)cc2)c([N+](=O)[O-])cc1OC,169,-0.8,i,0.98,6,.,.
COCCNC(=O)C(=O)Nc1ccc(Cl)cc1C,91,.,i,1,-1,.,.
CCOC(=O)/C(C#N)=C/Nc1ccsc1C(C)=O,97,.,i,0.95,.,.,.
COc1ccc(OCC(=O)N2CCOCC2)cc1,99,0.3,i,0.93,-5,-10,120
Cc1cc(OCC(O)CN(CCO)CCO)ccc1Cl (stereo not drawn),109,-3.0,i,0.82,-9,-13,103
CCOC(=O)CSc1ccc(C(=O)Nc2ccc(OC)cc2)cn1,104,.,i,1,8,.,.
CCN(c1cccc(C)c1)C(C(=O)Nc1ccc(OC)cc1)c1cc2c(cc1[N+](=O)[O-])OCO2 (stereo not drawn),112,-1.9,i,0.99,-10,-16,106
CCCn1c(CN2CCN(C(=O)OCC)CC2)nc2c1c(=O)n(C)c(=O)n2C,98,.,i,1.1,-1,.,.
Cc1ccc2c(c1)nnn2C1CCN(S(=O)(=O)c2ccc(C(=O)N3CC(C)CC(C)C3)cc2)CC1 (stereo not drawn),105,-0.8,i,0.91,-3,.,.
O=C(Nc1ccc(C(=O)O)cc1)Nc1cccc([N+](=O)[O-])c1,660,-1.0,i,1,-12,-17,84
Cc1ccc2occ(/C=C/C(=O)c3ccccc3O)c(=O)c2c1,96,2.0,i,1.1,-12,-46,80
CCc1nn2c(=O)cc(CSc3nc(C)cc(=O)[nH]3)nc2s1,102,-1.1,i,0.84,3,.,.
Cc1cc(C(F)(F)F)c(C#N)c(N2CCOCC2)n1,137,-0.4,i,0.91,-14,0,58
CC(C)c1cc(C(=O)O)n(-c2ccccc2)n1,109,-2.6,i,1.1,-2,-44,137
O=C(c1ccccc1F)N1CCN=C1SCc1cccnc1,71,-0.3,i,0.91,-1,.,.
CCN(CC)CCC(c1ccc(OC)cc1)c1c(O)cc(OC)cc1OC (stereo not drawn),104,.,i,0.88,.,.,.
CCc1nnc(NC(=O)CSc2nnc(-c3c[nH]c4ccccc34)n2C)s1,98,-0.3,i,0.78,-14,.,.
O=C(N/N=C/c1cccnc1)c1cc2ccccc2o1,102,0.0,i,0.9,-8,20,129
Cc1ccc(S(=O)(=O)NC(=O)NCc2ccc3c(c2)OCO3)cc1,105,152*,i,1,-5,71,75
O=C(COc1ccccc1)N(Cc1ccco1)c1ccc(O)cc1,105,-0.8,i,1.1,8,-55,108
CCOC(=O)c1cc(C(=O)NN)c(C)nc1C,64,-0.9,i,0.98,9,-67,74
CSc1nc2ccccc2n1C(=O)Oc1ccccc1,103,-0.1,i,1.1,-16,87*,99*
Cc1cc(C(=O)NCCCn2ccnc2)cs1,104,-0.2,i,0.98,1,-182,104
Cc1cc(C)c(NC(=O)CSc2nc3c(c(=O)n2C)SC(C)C3)c(C)c1 (stereo not drawn),106,-1.4,i,1,-5,.,.
O=C1CC(SC2=NCCS2)C(=O)N1c1ccc(Br)cc1 (stereo not drawn),94,-1.6,i,0.97,-2,14,65
O=c1[nH]n2c(=O)c3c([nH]c2c1N=Nc1cccc(C(F)(F)F)c1)CCCC3,72,-1.1,i,0.84,1,-137,86
C/C(=N\OCC(=O)Nc1ccc(F)c(F)c1F)c1cc2ccccc2o1,103,-1.5,i,0.96,10,.,.
O=C(/C=C/c1ccccc1)c1ccc(NC2=NCCCS2)cc1,105,-0.4,i,0.59,1,0,183
O=c1c[n+]([O-])c2ccccc2n1OCc1c(F)cccc1F,103,-0.8,?,.,-1,-121,113
Cc1ccccc1N(CC(=O)NCCc1ccccc1)C(=O)c1ccc(N2CCCC2)nc1,107,0.0,i,0.95,-14,-97,123
COc1ccc(OC)c(NC(=O)c2ccc(CN(c3cc(Cl)ccc3C)S(=O)(=O)c3ccccc3)cc2)c1,98,-2.7,i,1,-11,-18,125
CCOC(=O)C1=C(C)Nc2sc(C(=O)c3ccc(OC)cc3)c(N)c2C1c1ccc(C(=O)OC)cc1 (stereo not drawn),113,5.6*,i,1.2,2,21,91
O=C(O)CC(CC(=O)Nc1nncs1)c1ccccc1 (stereo not drawn),100,-2.7,i,0.96,-14,-38,74
CCOC(=O)CSc1nc(Nc2ccc3c(c2)OCO3)c2ccccc2n1,96,0.1,i,0.97,-3,16,114
Clc1ccc(CN=C(Nc2ccccc2)NC2CCCCC2)cc1,101,.,i,0.76,-2,.,.
Cc1ccccc1C(=O)N1CCC(C(=O)Nc2ccc(S(=O)(=O)N(C)C(C)C)cc2)CC1,109,-2.6,i,0.86,0,11,111
CCC(=O)Nc1cc(C)c(NC(=O)c2ccccc2OC)cn1,101,-0.1,i,1,0,50,168
Cc1cccc(NC(=O)c2c(C)nc3ccccn23)c1,105,-0.8,i,0.98,-5,50,80
C=CCNC(=O)N[C@@H](CCSC)C(=O)OC,98,-1.7,i,0.84,0,.,.
O=C(Nc1ccccc1C(F)(F)F)N1CCCCCC1,116,-1.2,i,0.92,-4,-17,128
NS(=O)(=O)c1ccc(CCNC(=O)c2cc(-c3cccs3)nc3ccccc23)cc1,97,.,i,0.94,-2,-22,69
O=c1c2ccccc2nc(-c2ccco2)n1-c1nc2ccccc2s1,107,-1.5,i,1.1,0,28,78
CC(C)(C)c1ccc(/C=N/OCC(=O)NCc2ccc(F)cc2)cc1,105,0.3,i,0.93,1,-14,98
O=P(c1ccccc1)(c1ccccc1)C(O)c1ccncc1 (stereo not drawn),108,-0.8,i,0.93,-12,.,.
CCCCNC(=S)N=Nc1c(O)n(Cc2ccccc2)c2ccccc12,97,-1.2,i,1.1,-2,.,.
COc1ccccc1CC(=O)Nc1ccc(Cl)cc1C(=O)O,116,.,i,0.99,-2,.,.
COc1ccc(NC(=O)COC(=O)CCCOc2ccc(Cl)cc2Cl)cc1,100,-1.4,i,0.97,-1,.,.
COc1ccc(C(=O)c2ccc(N3CCN(C(=O)c4ccc(F)cc4)CC3)c(F)c2)cc1Br,100,-1.5,i,0.9,0,-31,87
Cc1cc(Oc2ccccc2)nc(SCC(=O)Nc2ccc(Cl)c(Cl)c2)n1,102,-2.4,i,0.79,0,23,101
Cc1ccc(S(=O)(=O)CC(=O)N2CCCCCC2)cc1,103,-0.3,i,0.87,-5,45,78
COc1ccc(-c2nc(NC3=NCCCCC3)sc2C)cc1,107,.,i,0.96,10,.,.
C/C(=N\NC(=O)c1cc(C)[nH]n1)C(C)(C)C,99,-1.3,i,0.89,-15,29,162
CC(NC(=O)Nc1ccccc1)c1ccccc1 (stereo not drawn),92,-3.0,i,1,6,5,104
CCOc1cc2c(cc1/C=C1/NC(=O)N(CC(=O)OC)C1=O)OCO2,103,.,i,0.94,-6,-27,60
O=C(Nc1ccncc1)C1c2ccccc2Oc2ccccc21,103,-1.1,i,0.85,-7,-19,80
CC(=O)N1CCC(=NNC(=O)c2cccs2)CC1,91,-1.6,i,0.93,-11,.,.
# Later entries
SMILES,RGS16-Gao,GALR2 ag,HSV augment,HSV augment primary fold,PKD1 inh,Insulin prom inh,Insulin prom inh cell count
CC1CCN(C(=S)Nc2ccc(SC(F)F)cc2)CC1,112,0.1,i,0.83,-9,24,138
COc1cc(-c2nnn(CC(=O)NCc3ccccc3)n2)cc(OC)c1OC,99,.,i,0.94,-4,.,.
Cn1ncc2c(Sc3ccc(Cl)cc3)ncnc21,102,.,i,0.96,.,.,.
CSc1cccc(NS(=O)(=O)c2ccc(F)cc2)c1,102,-1.2,i,0.87,-10,49,51
CCOC(=O)Cn1nc(C)c(NC(=O)CCc2ccccc2)c1C,105,.,i,1.2,8,5,104
CC(C)(C)NC(=O)c1cccc(NC(=O)c2cccc(O)c2)c1,104,-2.0,i,0.7,-3,67,118
N#Cc1ccc(Cl)cc1NC(=O)CSc1nc2nc(-c3cccs3)cc(C(F)(F)F)c2c(=O)[nH]1,103,.,i,0.88,.,.,.
CCOc1ccc(NS(=O)(=O)N(C)C)cc1,112,-2.7,i,1,9,62,95
O=C(NC1CCN(Cc2ccccc2)CC1)c1ccc(Oc2cc(Cl)cc(Cl)c2)o1,93,.,i,0.88,.,.,.
COc1ccccc1-c1c(C)[nH]n2c(=O)c(Cc3ccccc3)c(C)nc12,100,.,i,1,5,.,.
CC1CC(C)CN(C(=O)c2ccc(C#N)cc2)C1 (stereo not drawn),101,.,i,1,5,.,.
COCCNC(=O)CCc1nc(-c2ccccc2)no1,97,-3.0,i,1,-3,-32,101
CCCCC(CCC(=O)NNC(=O)Cc1ccccc1)C(=O)O (stereo not drawn),48,-0.6,i,1.1,-2,-69,81
COc1ccc(NC(=O)Cn2nnc(C(=O)NCc3cccc(OC)c3)c2N)cc1,103,-0.3,i,1,12,-17,129
O=C(O)CC(c1cccc(C(F)(F)F)c1)N1CCS(=O)(=O)CC1 (stereo not drawn),98,.,i,0.99,6,-44,101
CN(c1ccccc1)S(=O)(=O)c1cccc(NC(=O)CCN2C(=O)C3CCCCC3C2=O)c1 (stereo not drawn),100,.,i,0.84,0,.,.
COc1ccc(OC)c(C2CC(=O)Nc3cc(OC)c(OC)c(OC)c32)c1 (stereo not drawn),91,0.0,i,0.76,-1,-35,78
COc1ccccc1NS(=O)(=O)c1cc(NC(=O)C2CC2)ccc1N1CCOCC1,105,.,i,0.89,-8,7,93
COC(=O)CNc1c(-c2ccccn2)nc2ccc(Br)cn12,105,-0.3,i,0.95,0,-37,52
CC1=C(C(=O)c2ccccc2)C(c2ccc(OC(F)F)cc2)NC(=S)N1 (stereo not drawn),102,.,i,0.84,-6,0,94
Cc1cc(C(=O)CN2C(=O)C3CC=CCC3C2=O)c(C)n1-c1ccccc1 (stereo not drawn),100,-1.0,i,0.8,-9,.,.
CC(Sc1nnc(COc2ccc3ccccc3c2)n1C)C(=O)O (stereo not drawn),101,-2.8,i,1,-1,.,.
CC(C)=CCN1CCN(CC#Cc2ccccc2)CC1CCO (stereo not drawn),104,.,i,0.92,-2,.,.
c1ccc(-c2cn3nc(-c4ccccc4)c(-c4ccccc4)nc3n2)cc1,102,9.0,i,0.93,4,-45,96

# Three entries from above, arranged by heavy-atom count, rising:
SMILES,RGS16-Gao,GALR2 ag,HSV augment,HSV augment primary fold,PKD1 inh,Insulin prom inh,Insulin prom inh cell count
COC(=O)CNc1c(-c2ccccn2)nc2ccc(Br)cn12,105,-0.3,i,0.95,0,-37,52
c1ccc(-c2cn3nc(-c4ccccc4)c(-c4ccccc4)nc3n2)cc1,102,9.0,i,0.93,4,-45,96
CN(c1ccccc1)S(=O)(=O)c1cccc(NC(=O)CCN2C(=O)C3CCCCC3C2=O)c1 (stereo not drawn),100,.,i,0.84,0,.,.

# (listing goes on)
SMILES,RGS16-Gao,GALR2 ag,HSV augment,HSV augment primary fold,PKD1 inh,Insulin prom inh,Insulin prom inh cell count
CCCN(Cc1cc2ccc(C)cc2[nH]c1=O)S(=O)(=O)c1ccccc1,99,0.2,i,0.89,-6,3,133
COc1ccc2c(c1)nc(SCC(=O)c1ccc(Br)s1)n2C,106,-1.0,i,0.89,-4,-2,69
CC(=O)NCCNc1ccc([N+](=O)[O-])cn1,86,-0.2,i,1.1,-9,24,166
Cc1ccc(C(=O)NC(=S)Nc2c(C)ccc3nsnc23)cc1,98,-1.5,i,1,-11,12,87

# Screening results deposited in PubChem BioAssay by several laboratories.
